Screening results deposited in PubChem BioAssay by ICCB-Longwood Screening Facility, Harvard Medical School.
Bm FixLJ act: B. multivorans fixK reporter activation; z-score (no concentration beside the values); 29,000 tested, 0.3% active; AID 1918990; B. multivorans fixK-promoter GFP reporter, 18 h; stronger effect = higher value;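 active means replicate mean overnight rise in green fluorescent reporter signal, 3 or more SD over negative controls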;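 further: score is relative to vehicle wells of the plate; 300 nL library stock went into each well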
An asterisk follows results filed as active; & = joins results of further samples. Some of the compounds tested, so the mix of outcomes need not match the whole.

SMILES	Bm FixLJ act
CC1=C(C(=O)OC2CCCC2)C(c2ccc(Cl)cc2)CC(=O)N1 (stereo not drawn)	-0.12
COc1ccc(Cn2c(=O)n(-c3ccccc3C)c(=O)c3c4c(sc32)CN(C(C)=O)CC4)cc1	-0.86
O=C(CN1CCN(Cc2ccccc2F)C1=O)NCc1ccccc1	-0.83
CN(CCn1ccc2ccccc21)C(=O)c1c(O)cccc1O	-0.56
CCCSc1ncc(Cl)c(C(=O)Nc2ccc(S(=O)(=O)N3CCCC(C)C3)cc2)n1 (stereo not drawn)	-0.36
CCC(=O)N1CCC2(CC1)OCCc1cc(C(=O)N3CCNC(=O)C3)sc12	0.06
Cc1cc(C)n2ncc(CN3CCC(c4nnc(CO)n4C)CC3)c2n1	-1.1
CC(C)Cn1c(C2CC(=O)N(c3ccccc3Cl)C2)nc2ccccc21 (stereo not drawn)	-1.6
Cc1cc(OCC(=O)Nc2ccc(-c3nc4cc(Cl)ccc4o3)cc2)cc(C)c1Cl	-0.41
CC(C)(C)c1ccccc1NC(=O)c1cnn2c(C(F)F)cc(-c3ccccc3)nc12	-0.49
Fc1ccc2c(c1)-c1c(cnc3cc(-c4ccc(Cl)cc4)nn13)CO2	-0.17
O=C(NCCc1cnc[nH]1)c1cc(Cn2cnc3ccccc32)[nH]n1	-0.03
O=C(Nc1ccc(F)cc1F)C1CCCN1S(=O)(=O)c1cccc2nsnc12 (stereo not drawn)	-0.6
CCn1c(N)nc2cc(C(=O)NCCc3ccccc3C)cnc21	-1.4
O=C(Cn1cccc1C(=O)c1ccccc1)NCc1ccc(Cl)cc1	-1.1
O=C(CSc1oc(-c2ccccc2)nc1S(=O)(=O)c1ccc(Br)cc1)c1ccccc1	-0.44
CC(=O)c1ccc(NC(=O)c2ncn(-c3ccccc3)n2)cc1	-1.4
COc1ccc(Br)c2c1-c1nc(NC(=O)c3ccccc3SC)sc1C2	1.7
Cc1cc(C)cc(NC(=O)C2CCCN(c3nnc(-n4c(C)ccc4C)s3)C2)c1 (stereo not drawn)	-0.01
CN(C)c1ccc(-c2nc3ccc(Cl)cn3c2Nc2ccc3c(c2)OCCO3)cc1	2.4

Reprinted at random: 6 records from the list, in no set order.
SMILES	Bm FixLJ act
CN(CCn1ccc2ccccc21)C(=O)c1c(O)cccc1O	-0.56
CC(C)(C)c1ccccc1NC(=O)c1cnn2c(C(F)F)cc(-c3ccccc3)nc12	-0.49
O=C(Nc1ccc(F)cc1F)C1CCCN1S(=O)(=O)c1cccc2nsnc12 (stereo not drawn)	-0.6
CCn1c(N)nc2cc(C(=O)NCCc3ccccc3C)cnc21	-1.4
Cc1cc(OCC(=O)Nc2ccc(-c3nc4cc(Cl)ccc4o3)cc2)cc(C)c1Cl	-0.41
Fc1ccc2c(c1)-c1c(cnc3cc(-c4ccc(Cl)cc4)nn13)CO2	-0.17

Continuation.
SMILES	Bm FixLJ act
CCOC(=O)c1cccc(NC(=O)c2cc3sccc3n2Cc2ccc(Cl)cc2)c1	2
COc1ccc(OCC(=O)N(Cc2cccc(OC)c2)C2CCS(=O)(=O)C2)cc1 (stereo not drawn)	-1.3
Cn1c(=O)[nH]c(=O)c2c1nc(CN1CCN(c3ccccc3)CC1)n2Cc1c(F)cccc1Cl	-0.87
O=C(c1cccc2nccnc12)N1CCC(Cn2ccnc2)CC1	1.1
CCOC(=O)c1c(Nc2ccc(C)cc2)nnc(-c2ccccc2)c1-c1ccccc1	-1.8
NC(=O)c1csc(S(=O)(=O)NCc2nncn2C2CCCCC2)c1	-2.9
O=S(=O)(c1ccccc1)c1nnn2c1nc(Nc1ccccc1)c1cc(Cl)ccc12	-0.15
CC(C)CCNC(=O)c1cn(C)c2ccc(S(=O)(=O)N3CCOCC3)cc2c1=O	-0.61
O=C(NC1CCN(C2CCOCC2)CC1)c1ccc2n[nH]nc2c1	-0.3
COCCN1CC(c2n[nH]c(Cc3ccc(OC)c(OC)c3)n2)CC1=O (stereo not drawn)	-1.5
CCC(=O)N1CCC(c2nnc(CN3CCCCC3)n2C)CC1	-0.06
COCCNC(=O)CCCn1c(SCC(=O)NCc2ccc(C)cc2)nc2c(sc3ccccc32)c1=O	1.1
O=C(c1ccco1)n1nc(-c2ccccc2)nc1NCc1ccccc1Cl	-0.45
Cc1ccc(Cn2c(CCCNC(=O)C3CCCCC3)nc3ccccc32)cc1	-0.42
COc1ccc(Nc2c(-c3ccc(N4CCOCC4)cc3)nc3ncccn23)cc1OC	-1.1
CCN(CCOc1ccccc1)C(=O)NC1CC2C(=O)NCC(=O)N2C1 (stereo not drawn)	0.86
Cc1cc(C(=O)NC2CC(c3nnc(CN(C)C)n3C)C2)c(=O)[nH]c1C (stereo not drawn)	0.29
CC1CCc2nc3ccc(S(=O)(=O)N4CCC(C(=O)NCc5ccccc5Cl)CC4)cc3c(C(=O)O)c2C1 (stereo not drawn)	0.03
C=CCOc1cccc(C(=O)N2CCCC2c2cc(C)no2)c1 (stereo not drawn)	-0.55
CCOCCC(=O)N1CCC[C@]2(C1)CN(C1CCCC1)CCC2O (stereo partly drawn)	-0.8
CN1C(=O)CN(CC(=O)N2CC3CCCC2C3)C(=O)c2ccccc21 (stereo not drawn)	-1.9
COc1ccc(-c2nc(CN(C)CC(O)CO)c(C)o2)c(C)c1C (stereo not drawn)	-0.25
CCOc1ccc(CCNC(=O)CCc2c(C)nc3c4c(C)cc(C)nc4nn3c2C)cc1	-1.4
O=C(COc1ccc(Cl)cc1)N1CCC2OCc3cnnn3C2C1 (stereo not drawn)	-1.2
O=C(NCCC1COc2ccccc2O1)c1ccc(-c2cccnc2)nc1 (stereo not drawn)	1.1
Cc1ccc(Nc2c(-c3ccc(C)cc3)nc3cnccn23)cc1	-1.2
CCCCCn1c(=O)[nH]c2cc(C(=O)N3CCN(c4cc(Cl)ccc4C)CC3)ccc2c1=O	0.32
CC(=O)N1CCc2cc(Br)cc(S(=O)(=O)CCC(=O)N3CCN(c4cccc(C)c4C)CC3)c21	-0.59
O=C(Nc1ccc(Br)cc1)c1cccc(S(=O)(=O)N2CCc3ccccc32)c1	1.3
CCCCCOC(=O)CSc1ncnc2sc3c(c12)CCC(C)C3 (stereo not drawn)	0.28
CCc1nc2onc(C)c2c(=O)n1CC(=O)O	0.26
Cc1noc(C)c1CCC(=O)NCC1CCCN(S(C)(=O)=O)C1 (stereo not drawn)	-1
Nc1ccc(S(=O)(=O)c2ccc(N)cc2)cc1	-0.85
CCOC(=O)c1ccccc1NC(=O)Cn1c(=O)n(CCCC(=O)NCc2ccc3c(c2)OCO3)c(=O)c2ccccc21	-1.3
Cc1ccc(NC(=O)Cn2c(=O)c3ccccc3n3nncc23)cc1	-1.3
O=C(COC(=O)c1cc(-c2cccs2)nc2ccccc12)c1ccc(F)cc1	0.95
CCc1nnc2c(NCc3cccc(OC)c3)nc3ccccc3n12	-1.6
Cc1cc(NS(=O)(=O)c2ccc(NC(=O)COc3c(C)cc(Br)cc3C)cc2)no1	0.44
COc1ccc(CNC(=O)c2cnc3ccc(C)cn3c2=O)cc1	0.2
CCc1nc(CN2CCCC3(CCC(=O)N(CCCOC)C3)C2)no1 (stereo not drawn)	0.39
COCCn1cnnc1CCNS(=O)(=O)c1cc(C)c(C)cc1OC	-0.94
Cn1cc(Cl)c(C(=O)NC2COCC2Cc2ccncc2)n1 (stereo not drawn)	0
CCc1ccc(CCC(=O)N2CC(O)C(Cc3ccnc4ccccc34)C2)cc1 (stereo not drawn)	0.09
CCC(Sc1nnc2c(n1)[nH]c1ccccc12)C(=O)Nc1nnc(C(C)C)s1 (stereo not drawn)	-0.69
O=C(CCCn1c2ccccc2c(=O)c2ccccc21)Nc1cccc(Cl)c1	-0.2
Cc1cccc(OC(=O)c2nc(SCc3ccccc3F)ncc2Cl)c1	2
CCOc1ccccc1NC(=O)Cn1c(=O)n(Cc2ccco2)c(=O)c2sc3ccccc3c21	-1.5
Cn1c(=O)n(C)c2cc(S(=O)(=O)Nc3ccccc3C(=O)O)ccc21	0.06
N[C@@H](Cc1ccc(N(CCCl)CCCl)cc1)C(=O)O	-1.5&-0.66
CCCCC1CCCN1C(=O)c1cc(COc2ccccc2)[nH]n1 (stereo not drawn)	0.92
Cc1cccc(C(=O)Nc2sc3c(c2C(=O)N2CCCCC2)CCC(C)C3)c1 (stereo not drawn)	-1
O=C(Cn1cc(C(=O)c2ccccc2)c(=O)c2cc3c(cc21)OCCO3)Nc1ccc(F)c(F)c1	-2.3
Cc1ccc(NC(=O)Nc2cccc(C)n2)cc1	-0.27
Fc1ccc(Nc2c3c(nc4ccccc24)CCC3)cc1	-0.92
COc1ccc(Nc2ncc3c(n2)CCN(C(=O)OC(C)(C)C)C3)cc1	-1.6
CC1=C(C(N)=O)C(c2ccc(C(C)C)cc2)n2nc(SCc3ccccc3)nc2N1 (stereo not drawn)	-1.9
COc1ncccc1NC(=O)NCc1nncn1C1CCCCC1	0.26
CC(=O)c1ccc(N2CCN(C(=O)Nc3cccc(F)c3)CC2)cc1	-0.92
CCN(CC)CCOC(=O)c1ccc(NC(=O)c2cc3c(s2)-c2ccccc2OC3)cc1	-6.5
O=C(CCn1cccn1)NC(c1ccc2c(c1)CCO2)C1CC(O)C1 (stereo not drawn)	0.69

4 compounds already listed, arranged by SMILES length, ascending.
SMILES	Bm FixLJ act
Cc1ccc(NC(=O)Nc2cccc(C)n2)cc1	-0.27
COc1ncccc1NC(=O)NCc1nncn1C1CCCCC1	0.26
Cn1cc(Cl)c(C(=O)NC2COCC2Cc2ccncc2)n1 (stereo not drawn)	0
N[C@@H](Cc1ccc(N(CCCl)CCCl)cc1)C(=O)O	-1.5&-0.66

(listing goes on)
SMILES	Bm FixLJ act
CN1CCN(c2ncc(C(C)(C)C(=O)O)c(N3CCOCC3)n2)CC1(C)C	-1.6
Cc1ccsc1CN(CCN(C)C)C(=O)Nc1ccc(C#N)cc1F	-0.78
Cc1cc(NC(=O)C2CCN(S(=O)(=O)c3ccc(Br)s3)CC2)ccc1Br	-0.89
Cc1[nH]c2ccccc2c(=O)c1CCC(=O)NCCC1CCCN1C (stereo not drawn)	0.21
O=C(NCc1ccc(F)cc1)C1CCN(C(=O)c2cnn(-c3ccccc3)c2-n2cccc2)CC1	-2.1
COC(=O)c1sc(N2C(=O)c3oc4ccc(C)cc4c(=O)c3C2c2ccc(OC)cc2)nc1C (stereo not drawn)	1.7
CC(CCc1ccc(O)cc1)NCC(O)c1ccc(O)cc1 (stereo not drawn)	-1.8
COc1ccccc1CNC(=O)c1ccc(CS(=O)(=O)c2ccccc2C)o1	-0.35
CC1=NOC(C)(C(=O)N2CCN(CC(=O)N3CCCCC3)CC2)C1 (stereo not drawn)	0.44
Nc1c(C(=O)Nc2ccc(OC(F)(F)F)cc2)sc2nc3c(cc12)N1CCC3CC1	-1.7
O=C(C1CCCN(S(=O)(=O)c2ccc(Br)s2)C1)N1CCN(c2ccc(F)cc2)CC1 (stereo not drawn)	-0.63
COc1ccccc1NC(=O)CN(c1ccc(C(C)C)cc1)S(=O)(=O)c1c(C)noc1C	0.8
CCOC(=O)c1sc(NC(=O)/C=C/c2ccc(C(C)C)cc2)c(C(=O)OCC)c1C	0.38
CCc1ccccc1S(=O)(=O)Cc1ccc(C(=O)NCc2ccc(Cl)cc2)o1	-2.2
CC1CCCCN1C(=O)CSc1nnc(-c2cccc(Cl)c2)o1 (stereo not drawn)	-0.33
Oc1ccc(/C=C/c2nc(-c3ccccc3O)n(-c3ccccc3)n2)c(O)c1	-1.4
COc1ccccc1OCC(=O)Nc1c(C(=O)c2ccc(F)cc2)oc2ccccc12	-1.5
N#Cc1ccccc1OCC(=O)N1CCN(c2ccccc2)CC1	-1.6
Cc1ccc(Cn2c(CCNC(=O)C(C)C)nc3ccccc32)cc1	-1.2
Cc1cccc(N(CC(=O)NC(C)c2ccccc2)S(=O)(=O)c2ccccc2)c1C (stereo not drawn)	-1.6
CCC(=O)N1CCc2cc(Br)cc(S(=O)(=O)N3CCN(c4ccccc4)CC3)c21	0.14
Cc1ccc2nc(Cl)c3cc(C(=O)NC4CCCCC4)sc3c2c1	0.01
Cc1cccc(NC(=O)c2c(NC(=O)c3ccccc3)sc3c2CCCC3)c1	-0.91
O=C1C(O)=C(O)C(=O)C(O)=C1O	7.4*
CCC(=O)N1CCc2cc(S(=O)(=O)CCC(=O)N3CCN(c4ccc(C(C)=O)cc4)CC3)ccc21	-1.4
CCOC(=O)Cn1nc(N2CCN(c3ccc(F)cc3)CC2)ccc1=O	-2.2
Cc1cc(F)ccc1NC(=O)CCS(=O)(=O)c1cccc2nsnc12	-1.7
CC(=O)c1ccc(NC(=O)c2cc(-c3ccc(Cl)c(Cl)c3)on2)cc1	0.12
COc1ccc(CCNC(=O)c2cc(=O)c3cc(C)c(C)cc3o2)cc1OC	-0.77
COc1ccc(Cn2c(CCC(=O)Nc3ccc(C)cc3)nc3cccnc32)cc1	-0.09
O=C(NCCC1=CCCCC1)c1ccc2c(c1)N(Cc1ccccc1F)C(=O)c1ccccc1S2(=O)=O	0.34
CCCn1cnnc1CNC(=O)[C@]12COCC1CN(Cc1c(C)noc1C)C2 (stereo partly drawn)	-0.27
Cc1cccc(CCNC(=O)CCc2c(C)nc3c(c(C)nn3-c3ccccc3)c2C)c1	-0.46
COc1ccc(CNC(=O)Cn2cccc2C(=O)c2ccccc2C)cc1	-1.1
COc1ccc(NC(=O)c2csc3c2CCCCC3)cc1	-0.11
Cc1ccc(NC(=O)Cn2cc(C(=O)c3ccccc3)c3ccccc32)cc1	0.82
CC1=C(C#N)C(NC(=O)c2ccccc2Cl)(C(F)(F)F)C(=O)N1 (stereo not drawn)	0.64
Brc1ccc2nc(-c3ccccc3)c(Nc3ccc4c(c3)OCO4)n2c1	-2

A second format for part of the listing above.
mol,Bm FixLJ act
CCOC(=O)Cn1nc(N2CCN(c3ccc(F)cc3)CC2)ccc1=O,-2.2
Cc1cc(F)ccc1NC(=O)CCS(=O)(=O)c1cccc2nsnc12,-1.7
CC(=O)c1ccc(NC(=O)c2cc(-c3ccc(Cl)c(Cl)c3)on2)cc1,0.12
COc1ccc(CCNC(=O)c2cc(=O)c3cc(C)c(C)cc3o2)cc1OC,-0.77
